# total CFTR – total CFTR protein upregulators, primary screen, cell-based, HeLa F508del-CFTR, immunofluorescence, viability (AID 1224863); HeLa F508del-CFTR, immunofluorescence total CFTR, 24 h; by the record results were divided by relative cell number; some inactives read as strong as hits; calls, or highest fold increase where a dose series was run; actives 0.1% (n = 10,000); in the data nearly all actives have a first-pass fold increase above 1.5; a few of its hits are not listed in these tables;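 note: total CFTR protein by anti-CFTR immunofluorescence in fixed cells; first pass at 25 µM or 10 µg/mL by library and series up to twice that; 1 = untreated cells; first-pass hits also needed half or more of the cells alive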
# total CFTR fold 25 µM – second read-out of total CFTR, no call of its own (marks repeat the call); fold increase; measured here: primary screen single dose 25 uM; library dosed in µM
# total CFTR fold 10 ug/mL – also measured in total CFTR; calls as there; fold increase; measured here: primary screen 10 ug/mL
# total CFTR viability 25 µM – also measured in total CFTR; calls as there; viability, %; measured here: primary viability 25 uM; library dosed in µM;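 0% = killed and 100% = untreated cells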
# total CFTR viability 10 ug/mL – second read-out of total CFTR, no call of its own (marks repeat the call); viability, %; measured here: primary viability 10 ug/mL;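 0% = killed and 100% = untreated cells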
# Numbers without * were called inactive; i = inactive; · = no result given; & = joins results of further samples. An excerpt; rates above refer to the full screens.
SMILES,total CFTR,total CFTR fold 10 ug/mL,total CFTR viability 10 ug/mL,others
Cn1c(=O)c2ccccc2n2c(COc3cccc(Cl)c3Cl)nnc12,i,0.98,97.0,
CCC(=O)NCC[C@@H]1CCc2ccc3c(c21)CCO3,i,·,·,total CFTR fold 25 µM=1.13&0.9;total CFTR viability 25 µM=88.0&88.0
Cn1ccnc1C(Nc1ccc2nnnn2n1)c1cccc(F)c1 (stereo not drawn),i,1.02,102.0,
Cc1cc(NC(=O)C(C)OC(=O)c2sccc2C)no1 (stereo not drawn),i,1.02,91.0,
CCONCc1cc(=O)oc2cc(O)c(CC)cc12,i,1.01,89.0,
Cn1c(-c2ccccc2)nn(CN2CCCC2c2nc3ccccc3s2)c1=S (stereo not drawn),i,1,112.0,
O=C(O)CCSc1nnc(SCC(=O)NC2CCS(=O)(=O)C2)s1 (stereo not drawn),i,1.02,110.0,
CN(Cc1ccccc1)CN1C(=O)C(=O)c2cc3c(cc21)OCCO3,i,1.09,93.0,
Cc1occc1C(=O)OCn1nnc2ccccc2c1=O,i,0.98,99.0,
O=c1cc(CO)nc2ccccn12,i,1,108.0,
Brc1ccc(-c2nnc(CSc3nnc(-c4ccc5c(c4)OCO5)o3)o2)s1,i,1.05,91.0,
COCCCNS(=O)(=O)c1ccc(Cl)s1,i,1.14,88.0,
CC1c2ccsc2CCN1CCC(=O)NC(N)=O (stereo not drawn),i,1.03,94.0,
O=C(CCCNC(=O)c1cccs1)NC1C2CC3CC(C2)CC1C3 (stereo not drawn),i,1.04,96.0,
CC(=O)N1C=Cc2ccccc2C1CC(=O)Nc1cccc([N+](=O)[O-])c1 (stereo not drawn),i,0.98,77.0,
O=C(NC(c1ccccc1)c1ccccc1)C1(c2ccccc2)CC1,i,0.97,88.0,
Cn1c(NCCN(CCO)CCCc2ccc([N+](=O)[O-])cc2)cc(=O)n(C)c1=O,i,·,·,total CFTR fold 25 µM=0.95;total CFTR viability 25 µM=96.0
Clc1ccccc1C(c1ccccc1)(c1ccccc1)n1ccnc1,i,·,·,total CFTR fold 25 µM=0.96&0.92;total CFTR viability 25 µM=87.0&97.0
CC1=C(/C=C/C(C)=C/C=C/C(C)=C/CO)C(C)(C)CCC1,i,·,·,total CFTR fold 25 µM=0.99;total CFTR viability 25 µM=78.0
CNC[C@H](O)[C@@H](O)[C@H](O)[C@H](O)CO,i,·,·,total CFTR fold 25 µM=1.07;total CFTR viability 25 µM=98.0
NC(=O)CSCCC(=O)NCc1ccco1,i,1,108.0,
CN(C(=O)CN1CCN(c2nccs2)CC1)C1CCS(=O)(=O)C1 (stereo not drawn),i,0.98,96.0,
C=C(Cl)COC(=O)c1[nH]c(C)c(C(=O)OC)c1C,i,0.92,87.0,
CS(=O)(=O)NCCCC(=O)O,i,1.04,94.0,
Cc1nc(CNC(C)C(=O)O)cs1 (stereo not drawn),i,0.95,77.0,
CC1(C(=O)N2CCCSc3ccccc32)CC1(Cl)Cl (stereo not drawn),i,0.91,89.0,
CC1NC(=S)N(c2ccc3c(c2)Cc2ccccc2-3)C1=O (stereo not drawn),i,1.02,89.0,
c1ccc(N2CCN(c3nc(-c4cccs4)nc4ccccc34)CC2)cc1,i,0.87,87.0,
O=C(c1cnccn1)N1CCN(S(=O)(=O)c2ccc(Cl)s2)CC1,i,0.9,94.0,
N#Cc1cccnc1NCc1ccc(N2CCCC2)nc1,i,1.01,80.0,
O=C(CN1C(=O)NC2(CCCCC2)C1=O)NCc1cccs1,i,0.94,91.0,
COc1cc(CNCc2cc(Br)ccc2F)cc(OC)c1OC,i,0.9,86.0,
CN(Cn1cnc(-c2ccc([N+](=O)[O-])cc2)n1)C1CCCCCC1,i,0.94,89.0,
O=C1CCC(C(=O)N2CCc3sccc3C2c2cccs2)=NN1 (stereo not drawn),i,1.05,88.0,
C=CCn1c(SC(C)c2nnnn2-c2ccccc2)nnc1-c1ccoc1C (stereo not drawn),i,1.01,93.0,
COC(=O)c1ccoc1COC(=O)c1cc2c(s1)-c1ccccc1OC2,i,1.05,99.0,
CCCn1nnnc1COC(=O)c1c(C)oc(-n2cccc2)c1C#N,i,0.98,98.0,
COC(=O)c1cc2ccccc2cc1Oc1ccc2nnnn2n1,i,0.95,86.0,
CN[C@@H]1C(OC2[C@H](O[C@H]3[C@H](O)[C@@H](O)[C@H](N=C(N)N)[C@@H](O)[C@@H]3N=C(N)N)OC(C)[C@]2(O)CO)OC(CO)C(O)C1O (stereo partly drawn),i,·,·,total CFTR fold 25 µM=1.04;total CFTR viability 25 µM=83.0
CNCCC=C1c2ccccc2CCc2ccccc21,i,·,·,total CFTR fold 25 µM=1.04;total CFTR viability 25 µM=86.0

# Entries shown so far that have an aryl thioether with sulfur outside any ring:
SMILES,total CFTR,total CFTR fold 10 ug/mL,total CFTR viability 10 ug/mL,others
O=C(O)CCSc1nnc(SCC(=O)NC2CCS(=O)(=O)C2)s1 (stereo not drawn),i,1.02,110.0,
Brc1ccc(-c2nnc(CSc3nnc(-c4ccc5c(c4)OCO5)o3)o2)s1,i,1.05,91.0,
C=CCn1c(SC(C)c2nnnn2-c2ccccc2)nnc1-c1ccoc1C (stereo not drawn),i,1.01,93.0,

# Next section
SMILES,total CFTR,total CFTR fold 10 ug/mL,total CFTR viability 10 ug/mL,others
Cc1ccc(CN2c3ccc(S(N)(=O)=O)cc3CC2C)cc1 (stereo not drawn),i,0.9,96.0,
C=CCNC(=O)CC1CC2CCC1C2 (stereo not drawn),i,1.03,70.0,
O=C1NC2(CCCCC2)N(C(=O)c2cc(=O)[nH]c3ccccc23)C2=C1CCCC2,i,1.08,95.0,
CS(=O)(=O)N1CCCN(S(=O)(=O)c2ccc3c(c2)CCCC3)CC1,i,1,103.0,
Ic1cccc(OCc2nnc(-c3ccccc3)o2)c1,i,1.07,100.0,
O=C(OCc1ncc(-c2ccccc2)o1)C1(S(=O)(=O)c2ccccc2)CCCC1,i,0.86,81.0,
COC(=O)C(C)NC(=O)NC1CCCCC1 (stereo not drawn),i,0.97,98.0,
CC(C(=O)O)c1cccc(CC2CCCC2=O)c1 (stereo not drawn),i,·,·,total CFTR fold 25 µM=1.14;total CFTR viability 25 µM=86.0
COc1ccc([N+](=O)[O-])cc1S(=O)(=O)N1CCOc2ccccc21,i,0.95,90.0,
CC1(C)NC(=O)N(c2ccc([N+](=O)[O-])c(C(F)(F)F)c2)C1=O,i,·,·,total CFTR fold 25 µM=1.04;total CFTR viability 25 µM=91.0
CC1=C(/C=C/C(C)=C/C=C/C(C)=C/C=C/C=C(C)/C=C/C=C(C)/C=C/C2=C(C)CCCC2(C)C)C(C)(C)CCC1,i,·,·,total CFTR fold 25 µM=0.96;total CFTR viability 25 µM=97.0
O=C(CCN1C(=O)COc2ccccc21)NCCN1CCS(=O)(=O)CC1,i,1.09,103.0,
COCCCn1c(C)cc(C(=O)COC(=O)C23CC4CC(CC(NC(C)=O)(C4)C2)C3)c1C,i,0.94,92.0,
O=C1c2ccccc2C(=O)C1c1ccc(Br)cc1,i,·,·,total CFTR fold 25 µM=1.02;total CFTR viability 25 µM=77.0
N#Cc1c(/C=C/c2ccc(-c3ccccc3)cc2)cc(-c2cccc(Cl)c2)n2c1nc1ccccc12,i,1.04,84.0,
CNCC(N)=O,i,0.99,98.0,
CSc1ccc2c(c1)N(CCC1CCCCN1C)c1ccccc1S2 (stereo not drawn),i,·,·,total CFTR fold 25 µM=0.91&0.6;total CFTR viability 25 µM=74.0&3.0
O=C(COc1cc(Cl)ccc1Cl)c1ccc2c(c1)OCCO2,i,1.04,101.0,
O=S(=O)(Nc1cc2c(cc1Cl)OCCO2)c1cc(Cl)cc(Cl)c1,i,1.04,99.0,
Cn1c(C(F)(F)F)nnc1S(=O)(=O)Cc1cccc(C(F)(F)F)c1,i,1,89.0,
COc1c(Br)cc(CNC(C)C2CCCO2)cc1Br (stereo not drawn),i,1.01,96.0,
O=c1oc2cc(Oc3ccc(S(=O)(=O)N4CCOCC4)cc3[N+](=O)[O-])ccc2c2c1CCC2,i,1.04,111.0,
O=[N+]([O-])c1ccc(-c2ncn(CN3CCN(Cc4ccc5c(c4)CCO5)CC3)n2)cc1,i,0.97,98.0,
C/C(=C/C(=O)O)C1CC1,i,1.09,96.0,
COc1cc2c(cc1OC)CN(Cn1nc3ccccn3c1=O)CC2,i,0.93,97.0,
Cc1ccn2cc(-c3ccccc3)nc2c1,i,1.08,62.0,
COC(=O)Nc1nc2ccc(C(=O)c3ccc(F)cc3)cc2[nH]1,i,·,·,total CFTR fold 25 µM=0.73;total CFTR viability 25 µM=76.0
Cc1sc2nc(CSc3nnc(C)n3C)nc(N)c2c1C,i,1.12,88.0,
O=C(O)Cc1cc(I)c(Oc2ccc(O)c(I)c2)c(I)c1,i,·,·,total CFTR fold 25 µM=0.98;total CFTR viability 25 µM=99.0
CC(Oc1ccc(Br)cc1F)C(=O)O (stereo not drawn),i,0.86,83.0,
CC(C)(S)C(N)C(=O)O (stereo not drawn),i,·,·,total CFTR fold 25 µM=1.08;total CFTR viability 25 µM=90.0
O=c1cc(CN2CCCc3cc(F)ccc32)nc2ccccn12,i,1.08,98.0,
c1nc(NCCOc2ccc3c(c2)OCO3)c2ccsc2n1,i,0.85,83.0,
CC1CN(CN2C(=O)C(=O)N(Cc3ccccc3)C2=O)CCO1 (stereo not drawn),i,1.27,100.0,
O=C(OC(C(=O)c1c[nH]c2ccccc12)c1ccccc1)c1ccc2c(c1)OCO2 (stereo not drawn),i,0.93,90.0,
Cn1nnn(CN2CCN(S(=O)(=O)c3ccccc3F)CC2)c1=S,i,1.05,98.0,
CCCCC[C@H](O)/C=C/[C@H]1[C@H](O)CC(=O)[C@@H]1C/C=C\CCCC(=O)O,i,·,·,total CFTR fold 25 µM=1.09;total CFTR viability 25 µM=90.0
CN(Cc1ccc(-c2ccc(Cl)cc2)o1)S(=O)(=O)N1CCc2ccccc2C1,i,0.85,86.0,
Cc1nc2sccn2c1-c1nc(-c2ccc(Br)o2)c(C(=O)c2ccc3c(c2)OCCO3)s1,i,1.03,99.0,
CNC(=O)c1nc(N)n[nH]1,i,1.02,95.0,

# Reprinted at random: 2 compounds from above, in no set order.
SMILES,total CFTR,total CFTR fold 10 ug/mL,total CFTR viability 10 ug/mL,others
COc1cc2c(cc1OC)CN(Cn1nc3ccccn3c1=O)CC2,i,0.93,97.0,
CC1CN(CN2C(=O)C(=O)N(Cc3ccccc3)C2=O)CCO1 (stereo not drawn),i,1.27,100.0,

# Following part.
SMILES,total CFTR,total CFTR fold 10 ug/mL,total CFTR viability 10 ug/mL,others
O=C1NC2(CCCCC2)C(=O)N1CN1CCN(C(c2ccc(F)cc2)c2ccc(F)cc2)CC1,i,1.02,96.0,
O=C1Cc2cc(CCN3CCN(c4nsc5ccccc45)CC3)c(Cl)cc2N1,i,·,·,total CFTR fold 25 µM=1.06;total CFTR viability 25 µM=75.0
CN1C(C(=O)Nc2ccccn2)=C(O)c2ccccc2S1(=O)=O,i,·,·,total CFTR fold 25 µM=1.04&0.99&1.07;total CFTR viability 25 µM=88.0&89.0&105.0
CN(CC(=O)O)S(N)(=O)=O,i,1.08,97.0,

# For convenience, 6 of the compounds above.
SMILES,total CFTR,total CFTR fold 10 ug/mL,total CFTR viability 10 ug/mL,others
Cc1nc2sccn2c1-c1nc(-c2ccc(Br)o2)c(C(=O)c2ccc3c(c2)OCCO3)s1,i,1.03,99.0,
CNC(=O)c1nc(N)n[nH]1,i,1.02,95.0,
O=C1NC2(CCCCC2)C(=O)N1CN1CCN(C(c2ccc(F)cc2)c2ccc(F)cc2)CC1,i,1.02,96.0,
O=C1Cc2cc(CCN3CCN(c4nsc5ccccc45)CC3)c(Cl)cc2N1,i,·,·,total CFTR fold 25 µM=1.06;total CFTR viability 25 µM=75.0
CN1C(C(=O)Nc2ccccn2)=C(O)c2ccccc2S1(=O)=O,i,·,·,total CFTR fold 25 µM=1.04&0.99&1.07;total CFTR viability 25 µM=88.0&89.0&105.0
CN(CC(=O)O)S(N)(=O)=O,i,1.08,97.0,

# Screens: PubChem, Southern Research Institute
